Compound activity from PubChem BioAssay.
LANA-H2B inh – blocks KSHV LANA binding to histone H2A/H2B. Q9QR71. cell-free LANA-H2A/H2B peptide, fluorescence polarization. inhibition, % (test concentration not listed). AID 2629. 320,000 compounds, 0.6% hits; in the data active = inhibition mostly above about 10%, no sharp cut-off; inactive = mostly below about 6.7%;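 note: stock transfer was 7.5 nL into about 10 µL; 0% = median of vehicle wells and 100% = median of positive control wells; one replicate is shown; the record names a cut of 25% in any replicate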
UCH37 inh – human UCH37 deubiquitinating enzyme inhibition; Q9Y5K5; purified proteasome/UCH37, Ub-AMC cleavage fluorescence; inhibition, % (no concentration beside the values); 330,000 compounds, 0.33% hits;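 active = mean of two replicates above 20%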;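 note: 0% = compound-free wells with enzyme and 100% = wells lacking proteasome; stock transfer was 100 nL into about 20 µL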
Target sequence (Q9Y5K5 whole entry, looked up): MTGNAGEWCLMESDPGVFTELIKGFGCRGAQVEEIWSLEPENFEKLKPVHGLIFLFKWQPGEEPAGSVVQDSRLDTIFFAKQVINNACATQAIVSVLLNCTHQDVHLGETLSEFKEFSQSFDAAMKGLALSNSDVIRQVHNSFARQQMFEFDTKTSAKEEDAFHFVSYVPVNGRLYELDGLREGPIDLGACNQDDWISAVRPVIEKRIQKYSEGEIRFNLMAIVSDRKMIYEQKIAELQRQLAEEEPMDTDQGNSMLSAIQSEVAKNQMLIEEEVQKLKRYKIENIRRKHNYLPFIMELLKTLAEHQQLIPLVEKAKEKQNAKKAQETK
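Reagent: Ub-AMC substrate; assay system: Proteasome-associated human UCH37 deubiquitinase; controls: no-proteasome and no-compound wells; read-out: % inhibition of Ub-AMC cleavage fluorescence; timing: 30 min preincubation with enzyme, 25 min cleavage at room temperature; signal: AMC fluorescence from Ub-AMC cleavage, excitation 355 nm, emission 460 nm; buffer or medium: Tris-HCl pH 7.4 plus ovalbumin, ATP-MgCl2, DTT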
E coli growth – inhibitors of Escherichia coli growth | 330,000 compounds, 0.21% hits | AID 1053175 | OD600 absorbance (concentration not given with the values) | OD600, 23 h; stronger effect = lower value;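 active = OD600 absorbance below the run mean of sample wells minus 3.6 SD, in any replicate, cut at about 0.56 in these data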;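 note: stock transfer was 300 nL into about 60 µL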
ALR inh – inhibitors of human sulfhydryl oxidase ALR; P55789; inhibition, % (concentration not given with the values); 290,000 compounds, 3.8% hits; purified ALR, DTT oxidation, H2O2 HRP-luminol luminescence;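 active = mean and each replicate at 75% or more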;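 note: stock transfer was 7.5 nL into about 7.5 µL; 0% = neutral wells and 100% = wells with inactivated enzyme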
Target sequence (P55789 whole entry, looked up): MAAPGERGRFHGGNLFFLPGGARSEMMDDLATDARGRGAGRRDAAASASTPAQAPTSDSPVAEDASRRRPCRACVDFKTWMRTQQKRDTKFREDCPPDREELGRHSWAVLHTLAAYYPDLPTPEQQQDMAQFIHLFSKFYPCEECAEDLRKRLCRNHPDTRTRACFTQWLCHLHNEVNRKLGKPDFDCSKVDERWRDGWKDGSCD
FGF22 binding – binders of recombinant human FGF22 by thermal shift. Q9HCT0. SYPRO orange fluorescence; percent of sucrose octasulfate shift, DMSO zero. calls only at 9.99 µM. 340,000 compounds, 1.5% hits;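 active = melting point raised past a set limit in the mean and every replicate; three in four hits are not shown here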
Target sequence (Q9HCT0 whole entry, looked up): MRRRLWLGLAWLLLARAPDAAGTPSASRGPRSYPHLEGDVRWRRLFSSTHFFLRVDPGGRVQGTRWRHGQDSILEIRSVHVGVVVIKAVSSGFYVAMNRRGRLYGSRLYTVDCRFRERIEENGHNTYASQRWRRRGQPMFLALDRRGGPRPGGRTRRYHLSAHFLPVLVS
Beta2AR agonist – agonists of human beta-2 adrenergic receptor inducing internalization | P07550 | Am2.2-beta2AR cells, FAP receptor internalization, flow cytometry; reference of the scale not given here | response, % (test concentration not listed) | 340,000 compounds, 0.43% hits | AID 504454;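 active = response above a set limit, near 3 SD of response in nonfluorescent compounds, cut at about 42% in these data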;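 note: stock transfer was 100 nL into about 11 µL; a reference agonist was the positive control; negative values mostly stem from fluorescent compounds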
HNF4A DNA FP – change in binding of human HNF4 alpha to DNA; 360,000 compounds, 0.3% hits; HNF4a-FITC DNA binding, fluorescence polarization, 1 h; activity change, % at 10 µM; P41235; in the data active = activity change above about 30%, passing the limit was not always enough;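 note: controls were the assay level and a saturating level of protein; the project sought stronger binding though the title names inhibitors; some compounds called inactive have numbers as strong as hits; positive values seem to mean higher polarization but the record does not say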
Active calls of the source: *; i = inactive; x = not tested or not shown.

SMILES	LANA-H2B inh	UCH37 inh	E coli growth	ALR inh	FGF22 binding	Beta2AR agonist	HNF4A DNA FP
CC1CCCN(C(=O)COC(=O)C2CCN(S(=O)(=O)c3ccc(Cl)c(C(F)(F)F)c3)CC2)C1 (stereo unspecified)	5.4	1.9	0.64	-3	i	-7	2.8
O=C(N/N=C/c1ccccn1)C(O)c1ccccc1 (stereo unspecified)	0.9	x	x	-3	i	-4	-1.0
OCCCc1nc2ccccc2n1CCCCOc1ccccc1	0.7	2.3	0.64	-10	i	-8	3.2
Cc1onc(-c2ccccc2Cl)c1C(=O)Nc1ccc(OCC(=O)N2CCOCC2)cc1	7.3	1.8	0.66	-1	x	7	5.9
CCOCCCNC(=O)c1c[nH]c2ccc(S(=O)(=O)Nc3cccc(OC)c3)cc2c1=O	12	4.6	0.72	-3	x	-2	-0.8
NC(=O)c1ccc(NC(=O)CCCN2C(=O)NC3(CCCC3)C2=O)cc1	1.2	-0.6	0.66	-4	i	-7	-0.3
C=CCNc1ncnc2c1cnn2-c1ccc(C)cc1C	1.7	4.6	0.72	1	i	1	3.1
CC(N=Cc1c(O)c2ccccc2oc1=O)C(=O)O (stereo unspecified)	-2.9	0.4	0.69	-2	i	4	1.6
CC(C)c1ccc(NCCC(=O)c2ccc(Br)cc2)cc1	2.2	0.5	0.73	-4	x	-1	2.3
O=c1c2c(nc3c(-c4cccc5ccccc45)c[nH]n13)CCC2	-1.6	-33	0.67	-3	x	-3	0.1
Cc1ccc(/C=C2\C(=O)NC(=O)N2C)o1	-1.7	9.4	0.7	15	i	10	-1.8
COc1ccc(-c2nc3c(c(=O)[nH]c(=O)n3Cc3ccccc3)n2CCO)cc1	-0.8	-88	0.64	-2	i	-4	1.0
COc1ccccc1-c1cc(C(=O)O)c2c(=O)n(C)c(=O)n(Cc3ccccc3)c2n1	1.0	-98	0.7	4	i	2	-0.4
CN(C(=O)CSc1nc(N)c2c3c(sc2n1)CSC(C)(C)C3)c1ccccc1	-0.9	-139	0.69	-15	x	-4	1.9
CC(=O)N1CCOc2cc(S(=O)(=O)NC(C)c3ccccc3)c(Cl)cc21 (stereo unspecified)	-2.2	4.1	0.78	x	i	1	-1.0
CCOC(=O)C1CC(=O)c2ccccc2C1c1ccccc1 (stereo unspecified)	x	2.2	0.66	x	i	2	2.8
Cn1c2ccccc2n2c(=O)c(=O)n(CC(=O)N3CCCc4ccccc43)nc12	-6.0	-5.8	0.71	-4	x	x	x
Cc1ccccc1/C=C/c1nc2ccccc2c(=O)n1CCc1ccccc1	x	-6.0	0.66	0	x	11	5.5
O=C(Oc1ccc(Oc2ccccc2)cc1)N1CCC(O)CC1	-3.4	3.8	0.64	-5	i	11	0.7
O=C(c1ccc(Cn2cnnn2)cc1)N1CCCC(Nc2ccc(F)c(F)c2)C1 (stereo unspecified)	-0.9	0.2	0.7	21	i	2	2.6
CCCc1c(O)c2ccccc2[nH]c1=O	2.5	-0.3	0.67	-1	x	-1	-0.3
CCSC1=C(C#N)C2(CCCC2)C(C#N)=C(N)N1	0.8	43*	0.74	-3	x	7	-1.1
CCC(=O)N1CCc2cc(S(=O)(=O)CCC(=O)NCCc3ccc(S(N)(=O)=O)cc3)ccc21	1.2	2.4	0.67	66	i	6	-3.0
O=C(Cc1ccccc1[N+](=O)[O-])OCC(=O)N1CCN(c2ccccc2)CC1	-0.1	4.2	0.68	74	i	4	6.8
COc1ccc(-n2nc(C(=O)NCC(=O)NCC3CCCO3)c3ccccc3c2=O)cc1 (stereo unspecified)	1.2	2.7	0.67	-2	x	-2	-4.3

Individual results from the list.
Reading for OCCCc1nc2ccccc2n1CCCCOc1ccccc1 in ALR inh: -10
Reading for O=C(c1ccc(Cn2cnnn2)cc1)N1CCCC(Nc2ccc(F)c(F)c2)C1 (stereo unspecified) in LANA-H2B inh: -0.9

Later entries.
SMILES	LANA-H2B inh	UCH37 inh	E coli growth	ALR inh	FGF22 binding	Beta2AR agonist	HNF4A DNA FP
CCNC(=S)N/N=C(\C)c1ccco1	1.1	x	x	-4	i	8	0.1
Cc1[nH][nH]c(=O)c1C(c1ccc(-c2ccc(Cl)cc2)o1)c1c(C)[nH][nH]c1=O	2.1	43*	0.62	16	i	-5	1.8
Nc1ccc(S(=O)(=O)Nc2nccc(/C=C/c3ccccc3F)n2)cc1	3.3	8.0	0.66	-7	i	-6	1.4
Cc1ccc(S(=O)(=O)N2CCN(C(=O)c3cc(C4CC4)nc4c3cnn4C(C)C)CC2)cc1	0.2	-2.1	0.69	-3	i	-3	-0.9
CC(OC(=O)C1CCCCC1)C(=O)Nc1cccc([N+](=O)[O-])c1 (stereo unspecified)	-3.5	-1.3	0.66	x	i	-4	3.1
CCC(=O)Nc1ccc2c(c1)nc(CCN1CCN(c3ccccc3)CC1)n2C	0.7	4.6	0.67	70	i	-14	-2.3
CCN(C(=O)COC(=O)c1cc(-c2ccc(C)o2)nc2ccccc12)C1CCS(=O)(=O)C1 (stereo unspecified)	2.8	-62	0.74	0	i	4	-6.3
c1ccc2c(c1)OCC(CNc1ncnc3nc[nH]c13)O2 (stereo unspecified)	-1.6	4.6	0.67	x	i	-2	-0.4
CC(Oc1ccc(Cl)cc1)C(=O)Nc1cccc(S(=O)(=O)N2CCOCC2)c1 (stereo unspecified)	0.4	-2.7	0.68	0	i	-9	3.0
COc1ccc(NC(=S)Nc2cccc(Cl)c2Cl)cc1OC	-1.3	0.0	0.68	x	i	8	0.8
Cc1ccccc1-c1nc(CS(=O)(=O)CC(=O)NCCCN2CCCC2=O)c(C)o1	-4.2	-1.2	0.73	7	i	6	-2.6
Cc1ccc(COc2cccc(/C=N/NC(=O)c3nnn(-c4nonc4N)c3C)c2)cc1	1.3	x	x	-8	i	4	-0.9
O=C(O)c1ccc(C(=O)c2ccc3c(c2)C(=O)N(CCO)C3=O)cc1	-7.3	3.4	0.69	x	i	-3	-1.7
CCc1nc(-c2ccc(-c3ccc(OC)cc3)nc2OC)no1	-2.0	-89	0.73	-12	x	0	2.1
Cc1ccc(C)c(Cn2c(O)c(N=NC(=S)Nc3ccccc3F)c3ccccc32)c1	-4.2	6.3	0.69	-1	i	-1	3.4
CCOC(=O)N1CCC(Nc2c(OCC)c(=O)c2=O)CC1	2.5	5.5	0.7	3	i	-10	1.7
CCCOc1cccc(C(=O)NCCNC(=O)c2ccco2)c1	8.0	0.0	0.61	-7	i	-14	-0.1
Cn1cccc1C(=O)C(=O)Nc1cc(Cl)cc(Cl)c1	2.9	3.1	0.71	x	x	-4	2.7
O=C(CSc1nnc(CNC(=O)c2ccc(F)cc2)o1)Nc1nccs1	-3.1	2.5	0.66	69	x	0	-0.7
CC1CCCN(C(=O)c2ccc(-c3ccccc3Cl)o2)C1 (stereo unspecified)	2.1	3.6	0.66	3	i	-11	0.7
C/C(Cl)=C/CN1C(=O)C2C3C=CC(C3)C2C1=O (stereo unspecified)	0.5	1.2	0.66	-17	x	2	-0.9
O=C(NCc1ccccn1)C(=O)NN=C1CCCCCCC1	-8.0	2.9	0.72	-2	i	0	0.1
C=CCNc1c2c(nc3nnnn13)CCCC2	x	7.3	0.72	x	i	-6	5.8
O=C(Nc1cccc(S(=O)(=O)N2CCCC2)c1)c1cccc(S(=O)(=O)N2CCOCC2)c1	-1.6	6.0	0.67	97*	i	3	2.4
Cc1ccc(S(=O)(=O)NCc2ccccc2)cc1C(=O)NCc1ccccn1	2.8	3.0	0.71	-2	i	1	0.7
New compounds follow:
SMILES	LANA-H2B inh	UCH37 inh	E coli growth	ALR inh	FGF22 binding	Beta2AR agonist	HNF4A DNA FP
O=C(c1ccc(CSc2ccccc2)cc1)N1CCCCCC1	5.9	1.4	0.73	-32	x	-8	-0.6
COc1ccc(C(=O)N(CN2CCCC2=O)c2ccc(C)cc2)cc1	-1.5	2.0	0.69	-16	x	1	3.7
CC[C@H](C)Cc1cn([C@@H](CCCCNC(=O)OC(C)(C)C)C(=O)NCCCCCCCCCCC(=O)N2CCN(C(=O)OC(C)(C)C)CC2)nn1	-5.5	2.9	x	-9	i	24	1.2
Cc1cc(C)n(/N=C/c2c[nH]c3ccccc23)c(=O)c1C#N	1.9	x	x	-7	i	-4	-0.3
O=S(=O)(c1ccccc1F)N1CCN(C(=S)NCc2ccccc2)CC1	1.4	5.1	0.64	-4	i	-6	-2.4
O=C1C(Cc2c[nH]c3ccccc23)NC(=S)N1C1CCCCC1 (stereo unspecified)	4.3	0.8	0.65	9	i	13	-0.3
CN(C)CCNc1ccc(Cl)cc1[N+](=O)[O-]	-3.7	4.2	0.68	2	i	-4	0.3
Cc1ccccc1-c1nn(-c2ccc(F)cc2F)cc1CNCC(C)O (stereo unspecified)	2.9	0.3	0.68	-6	i	-7	-2.5
CC(C)c1cccc(-c2ccc3c(c2)S(=O)(=O)c2cccc(C(=O)O)c2C3=O)c1	0.1	5.4	0.67	25	i	-15	-1.6
COc1ccc(C)cc1S(=O)(=O)NCc1cccs1	1.9	2.6	0.65	2	i	5	-2.6
N#Cc1cc(-c2ccccc2)cn(Cc2c(Cl)cccc2Cl)c1=O	2.1	-129	0.68	-4	x	-9	4.1
COc1cc(/C=N/NC(=O)c2ccc([N+](=O)[O-])cc2Cl)cc(Br)c1O	-6.7	x	x	x	x	-7	0.7
CC(C)(C)NC(=O)CN(C(=O)CNC(=O)c1cccs1)c1ccccc1F	-1.2	3.2	0.66	0	i	-11	-4.0
O=C(NCCCN1CCCC1=O)c1cccnc1	3.3	-1.6	0.71	0	x	-2	-6.5
O=S(=O)(Nc1cccc(S(=O)(=O)N2CCCC2)c1)c1ccccc1F	-3.0	3.9	0.7	-6	i	6	2.8
COc1ccccc1NC(=O)COC(=O)C12CC3CC(CC(Br)(C3)C1)C2	-0.9	3.3	0.7	1	i	1	0.1
COc1ccc(Cl)cc1NC(=O)CN(C)C(=O)C12CC3CC(CC(Cl)(C3)C1)C2	0.9	1.9	0.66	-9	i	23	2.5
Cc1ccc(-c2nc(Nc3cccc(O)c3)c3ccccc3n2)cc1	0.4	-65	0.65	-129	i	11	3.1
O=C(c1ccco1)N1CCN(c2cccc(Cl)c2)CC1	-8.2	-0.4	0.67	13	i	8	-1.5
O=C(Cn1cnc2cc([N+](=O)[O-])ccc2c1=O)Nc1ccc2c(c1)OCO2	1.2	5.2	0.7	-6	i	3	0.8
Cc1cccc(C)c1OCC(=O)Nc1ccccc1C(F)(F)F	-8.0	1.9	0.72	-1	i	-1	-3.6
Cc1nn(C(=O)CCCn2cc([N+](=O)[O-])cn2)c(C)c1Cl	-1.8	3.8	0.72	-5	i	-3	2.3
CC1CN(C(=O)C(C)N2C(=O)c3ccccc3C2=O)CC(C)O1 (stereo unspecified)	-2.1	1.3	0.66	0	x	0	2.4
CN(C)CCNC(=O)CN1C(=O)CSc2ccc(S(=O)(=O)N3CCCCC3)cc21	7.6	1.8	0.7	-11	i	8	-3.6
Cn1cc(/C=C(\NC(=O)c2ccccc2Cl)C(=O)NCCN2CCOCC2)c2ccccc21	-1.2	11	0.64	39	i	-3	-0.4
O=C(CCn1nnc2ccccc21)Nc1nnc(COc2ccc(F)cc2)s1	2.7	0.3	0.65	1	x	-7	-3.4
COc1cc(C(=O)N(CCCO)Cc2cc3ccc(C)c(C)c3[nH]c2=O)cc(OC)c1OC	0.2	-0.8	0.72	-8	x	0	-2.6
Oc1ccc(-c2csc(-c3cccnc3)n2)c(O)c1	-3.7	1.3	0.67	5	i	-2	-3.2
OC(CNCc1ccco1)Cn1c2ccc(Br)cc2c2cc(Br)ccc21 (stereo unspecified)	-12	1.9	0.65	-5	x	19	2.9

Profiles as entered above. Order of values: LANA-H2B inh, UCH37 inh, E coli growth, ALR inh, FGF22 binding, Beta2AR agonist, HNF4A DNA FP
COc1cc(C(=O)N(CCCO)Cc2cc3ccc(C)c(C)c3[nH]c2=O)cc(OC)c1OC is listed as 0.2, -0.8, 0.72, -8, x, 0, -2.6
Cc1cccc(C)c1OCC(=O)Nc1ccccc1C(F)(F)F is listed as -8.0, 1.9, 0.72, -1, i, -1, -3.6

An excerpt; rates above refer to the full screens.
